Source: PubChem (several laboratories)
Bfl-1 A1 inh = inhibitors of the anti-apoptotic protein A1, read as caspase activation; 330,000 compounds, 0.066% hits; MEF A1-2A-BIM cells, Caspase-Glo 3/7 luminescence, 3 h; percent of clofoctol response, vehicle zero; caspase activation, % (concentration not given with the values); AID 2462;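 active = over half of replicate activation scores above 10%, or exactly half above 10 with the replicate mean above 10; inconclusive = replicate mean below 10 yet half the replicates above 10; inactive = over half of replicates below 10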;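 also: wells of about 30 µL received 50 nL stock; many hits fall short of the cut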
MLL AF4-AF9 inh = MLL-AF4/AF9 protein interaction inhibition | P42568 | AlphaScreen, biotin-AF4 peptide binding to FLAG-AF9 | inhibition, % at 10 µM | 350,000 compounds, 0.47% hits | AID 651704;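 active = every replicate reaching a set inhibition limit, whatever the replicate mean, cut at about 25% in these data; inconclusive = mean inhibition reaches that limit but some replicates miss it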;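 also: 0% = plate neutral control median and 100% = total signal loss; the record names both 10 and 1 µM as test concentration; the first replicate is given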
Target sequence (P42568 whole entry, looked up): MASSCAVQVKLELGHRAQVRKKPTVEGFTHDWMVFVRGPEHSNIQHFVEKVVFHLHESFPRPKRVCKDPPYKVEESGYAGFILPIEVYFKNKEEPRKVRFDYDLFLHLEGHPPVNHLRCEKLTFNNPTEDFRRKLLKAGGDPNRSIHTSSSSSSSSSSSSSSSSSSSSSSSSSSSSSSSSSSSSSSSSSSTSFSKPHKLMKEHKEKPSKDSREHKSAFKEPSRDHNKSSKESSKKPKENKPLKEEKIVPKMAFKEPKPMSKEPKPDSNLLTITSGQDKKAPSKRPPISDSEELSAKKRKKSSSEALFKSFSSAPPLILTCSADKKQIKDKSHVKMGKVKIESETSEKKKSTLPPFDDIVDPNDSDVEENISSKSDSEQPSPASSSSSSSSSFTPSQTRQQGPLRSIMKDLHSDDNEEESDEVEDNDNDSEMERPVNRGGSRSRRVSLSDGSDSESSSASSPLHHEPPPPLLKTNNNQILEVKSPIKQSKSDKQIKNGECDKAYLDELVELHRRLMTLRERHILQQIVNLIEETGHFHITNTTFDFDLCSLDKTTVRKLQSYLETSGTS
T cruzi repl = T. cruzi replication inhibition; T. cruzi beta-gal in NIH3T3, luminescence, 90 h; 300,000 compounds, 1.4% hits; inhibition, % (test concentration not listed);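 active = mean inhibition across valid replicates above about 55%, limit read from the data; inconclusive = mean below that limit but half or more replicates reach it; inactive = mean below it, under half of replicates reach it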;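 also: signal also drops with host cell toxicity which is not excluded here; 0% = plate median of DMSO wells and 100% = zero luminescence signal; higher percent means less beta-gal luminescence so fewer parasites; stock transfer was 50 nL into about 50 µL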
Beta apoptosis = beta cell apoptosis inhibition. INS-1E cytokine-induced death, ATP luminescence, 48 h; percent of positive-control rescue, neutral wells zero. protection from apoptosis, % (no concentration beside the values). AID 435005. 300,000 compounds, 0.8% hits;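 active = all replicates at 75% or more, or half of them and the mean; inconclusive = half reach 75% but not the mean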;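 also: 0% = cytokine-treated negative control wells and 100% = positive control rescue; higher means more ATP so stronger rescue from cytokine killing; wells of about 40 µL received 100 nL stock; the first replicate is given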
E coli growth = E. coli growth inhibition. 330,000 compounds, 0.21% hits. Escherichia coli growth, OD600, 23 h; hits give low values. OD600 absorbance (no concentration beside the values);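 active = OD600 absorbance below the run mean of sample wells minus 3.6 SD, in any replicate, cut at about 0.56 in these data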;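 also: stock transfer was 300 nL into about 60 µL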
rRNA inh HTS = inhibits bacterial ribosomal RNA function over humanized ribosomes; 350,000 compounds, 1.6% hits; E. coli WT GFP vs humanized-ribosome RFP mutants, fluorescence, 24 h; hits give low values; DMSO median 0, no signal -100; GFP signal change (wild-type ribosome), % (test concentration not listed); AID 720706;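 active = significant combined selectivity score with lowered wild-type GFP, culture density cut under 30%, mutant RFP and density less affected; inactive = any of these conditions unmet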; also: one replicate is shown; some compounds called inactive have numbers as strong as hits
UCH37 DUB inh = blocks the human deubiquitinase UCH37 | Q9Y5K5 | purified proteasome/UCH37, Ub-AMC cleavage fluorescence | 330,000 compounds, 0.33% hits | inhibition, % (test concentration not listed);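 active = mean of two replicates above 20%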;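 also: 0% = compound-free wells with enzyme and 100% = wells lacking proteasome; stock transfer was 100 nL into about 20 µL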
Target sequence (Q9Y5K5 whole entry, looked up): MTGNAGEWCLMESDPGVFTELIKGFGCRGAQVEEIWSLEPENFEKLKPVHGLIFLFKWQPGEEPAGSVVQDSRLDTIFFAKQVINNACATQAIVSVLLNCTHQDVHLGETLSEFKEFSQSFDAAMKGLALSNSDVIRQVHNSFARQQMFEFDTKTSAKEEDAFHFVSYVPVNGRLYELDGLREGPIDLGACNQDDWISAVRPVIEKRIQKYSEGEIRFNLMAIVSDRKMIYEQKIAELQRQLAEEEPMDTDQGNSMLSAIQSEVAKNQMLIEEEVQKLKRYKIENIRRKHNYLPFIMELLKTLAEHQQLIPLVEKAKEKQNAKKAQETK
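system = Proteasome-associated human UCH37 deubiquitinase | amount = 0.15 nM proteasome as dispensed | medium = pH 7.4 Tris-HCl (50 mM) with ovalbumin, ATP-MgCl2, DTT | incubation = 30 min preincubation with enzyme, 25 min cleavage at room temperature | detection = AMC fluorescence 355/460 nm | read-out basis = percent inhibition | controls = no-proteasome and no-compound wells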
FGF22 binding = shifts melting point of recombinant human FGF22. Q9HCT0. recombinant FGF22 thermal shift, SYPRO orange fluorescence; percent of sucrose octasulfate shift, DMSO zero. calls only at 9.99 µM. 340,000 compounds, 1.5% hits;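 active = melting point raised past a set limit in the mean and every replicate; inconclusive = no clear call; three in four hits are not shown here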
Target sequence (Q9HCT0 whole entry, looked up): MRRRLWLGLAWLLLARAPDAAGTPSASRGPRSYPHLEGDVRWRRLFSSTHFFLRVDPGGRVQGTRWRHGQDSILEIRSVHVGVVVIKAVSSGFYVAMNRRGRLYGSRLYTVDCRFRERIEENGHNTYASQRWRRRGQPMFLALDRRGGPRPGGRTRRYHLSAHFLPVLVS
rRNA inh HTS OD600 = also measured in rRNA inh HTS; calls as there; OD600 change, %; measured here: OD600 growth;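 optical density of the mix in the first replicate; 0 = DMSO median and -100 = no signal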
rRNA inh HTS RFP = recorded beside rRNA inh HTS, whose call it bears; RFP signal change, %; measured here: RFP humanized mutant strains;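 first replicate; 0 = DMSO median and -100 = no signal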
An asterisk follows results filed as active; i = inactive; ? = inconclusive; · = not tested or not shown. The list is partial; rates above refer to the full screens.

SMILES | Bfl-1 A1 inh | MLL AF4-AF9 inh | T cruzi repl | Beta apoptosis | E coli growth | rRNA inh HTS | rRNA inh HTS OD600 | rRNA inh HTS RFP | UCH37 DUB inh | FGF22 binding
CCOC(=O)c1ccc(N2C(=O)CC(Sc3nc(O)c(CC)c(=O)[nH]3)C2=O)cc1 (centres undefined) | 1.4 | · | -15 | -2 | 0.71 | · | · | · | 4.9 | ·
Cc1ccc(S(=O)(=O)N(C)C)cc1NC(=O)C1CCCN(C(=O)c2ccc(Cl)cc2)C1 (centres undefined) | -0.5 | -1.8 | 1 | 6 | 0.68 | -8 | -5 | 2.9 | 0.3 | i
O=C(CN(C(=O)c1csnn1)c1cccc2c1CCCC2)NCc1ccccc1 | 0.5 | 3.0 | -7 | 0 | 0.67 | -7 | -11 | 1.7 | 0.6 | i
S=C(NC1CCCCC1)N1CCOCCOCCN(C(=S)NC2CCCCC2)CCOCC1 | -0.4 | 2.0 | 5 | -1 | 0.62 | 18 | 5 | 2.8 | 0.5 | i
CCOC(=O)C1=C(C)N(c2nonc2NC(C)=O)C(N)=C(C#N)C1c1ccccc1F (centres undefined) | 0.6 | · | -9 | -3 | 0.71 | · | · | · | 5.8 | ·
COc1ccc(S(=O)(=O)NCc2cccnc2)c2ccccc12 | -0.7 | -0.1 | 6 | 3 | 0.68 | -2 | -3 | -1.5 | 0.9 | i
O=C(NCC(=O)N(c1cccnc1)C(C(=O)NC1CCCC1)c1cccs1)c1cccs1 (centres undefined) | -0.4 | 0.8 | 14 | -3 | 0.68 | 6 | 1 | 1.7 | 4.4 | i
CC1CCCCC1NC(=O)COC(=O)c1ccc(N(C)C)cc1 (centres undefined) | -0.6 | · | 5 | -1 | 0.74 | · | · | · | -0.4 | ·
COc1cc(OC)c(C(=O)Nc2ccncc2)cc1OC | 0.0 | -2.9 | -11 | 0 | 0.66 | 3 | 0 | 4.9 | 0.1 | i
Cc1cc(N2CCCC2)nc2ccc(NC(=S)NCCCN3CCC(C)CC3)cc12 | 0.3 | 14 | 60* | 9 | 0.73 | 16 | 11 | 3.9 | -5.9 | i
CN(CC(=O)Nc1cccc(F)c1)C(=O)COc1cccc2c1OC(C)(C)C2 | -0.1 | -0.5 | -13 | · | 0.69 | -8 | -11 | 0.4 | 4.5 | i
COc1ccc(CNC(=O)[C@@H](NC(=O)C2CCN(S(=O)(=O)c3ccccc3)CC2)C(C)C)cc1 | 1.0 | -5.0 | -9 | 2 | 0.66 | 6 | 4 | -1.0 | -2.6 | i
C[C@@H]1[C@@H](Sc2ccccc2)CC(=O)O[C@@H]1c1ccc(-c2ccccc2)cc1 | 0.4 | 0.2 | 1 | · | · | -1 | -2 | -5.5 | 2.5 | i
COc1cccc(-c2n[nH]c3c2CCC3)c1 | 0.7 | 0.0 | -7 | -10 | 0.66 | 7 | -2 | 1.4 | 2.0 | i
CC1CN(C(=S)Nc2cccc(Cl)c2)CC(C)O1 (centres undefined) | 2.1 | 0.4 | -23 | · | 0.66 | 9 | 2 | -3.2 | -1.0 | i
CC(=O)c1ccc(S(=O)(=O)Nc2ccc(-c3ccc4nncn4n3)cc2)cc1 | 0.0 | 7.5 | -8 | -4 | 0.58 | 9 | 3 | -0.1 | 8.0 | i
Cc1cc(C)nc(NC(=NCCc2c[nH]c3ccccc23)NC(=O)Nc2ccc(Cl)cc2)n1 | -0.7 | · | 49 | 20 | 0.69 | · | · | · | 1.9 | ·
Cc1cc(C)cc(OCC(=O)Nc2ccc(-n3cnnn3)cc2)c1 | 0.2 | 2.1 | · | -3 | 0.65 | 8 | 8 | -0.6 | 1.4 | i
COc1ccc(NS(=O)(=O)c2cc([N+](=O)[O-])ccc2NN=Cc2ccccc2OCC(=O)O)cc1 | 0.0 | 7.3 | · | -4 | 0.71 | -32* | -12* | -6.1* | 4.9 | ·
CCN1C(=O)c2cccc3c(S(=O)(=O)Nc4ccccc4O)ccc1c23 | -0.2 | 5.0 | 15 | 1 | 0.71 | -13 | -14 | -0.1 | 1.0 | i

The list goes on; the last 2 above are carried over.
SMILES | Bfl-1 A1 inh | MLL AF4-AF9 inh | T cruzi repl | Beta apoptosis | E coli growth | rRNA inh HTS | rRNA inh HTS OD600 | rRNA inh HTS RFP | UCH37 DUB inh | FGF22 binding
COc1ccc(NS(=O)(=O)c2cc([N+](=O)[O-])ccc2NN=Cc2ccccc2OCC(=O)O)cc1 | 0.0 | 7.3 | · | -4 | 0.71 | -32* | -12* | -6.1* | 4.9 | ·
CCN1C(=O)c2cccc3c(S(=O)(=O)Nc4ccccc4O)ccc1c23 | -0.2 | 5.0 | 15 | 1 | 0.71 | -13 | -14 | -0.1 | 1.0 | i
CC(=O)Nc1ccc(SCC(=O)c2cc(C)n(-c3ccccc3F)c2C)cc1 | 0.0 | · | 12 | -1 | 0.69 | · | · | · | 3.3 | ·
COc1cc2c(cc1OC)[C@@H](NC(=O)COc1ccccc1)[C@H](OCc1ccccc1)C2 | · | -1.5 | · | · | 0.7 | -4 | -3 | 0.4 | 2.1 | i
Cc1ccc2c(c1)N(CC(=O)NCc1cccnc1)C(=O)CO2 | 0.3 | · | 4 | -5 | 0.64 | · | · | · | 0.6 | ·
C[C@H](NC(=O)CCCOc1ccc(Cl)cc1Cl)c1nnc2ccccn12 | 0.4 | -1.6 | -4 | -2 | 0.69 | 1 | 0 | -0.4 | 4.0 | i
CCn1c(SCC(=O)NC2=NCCS2)nnc1C(C)NC(=O)c1ccccc1Br (centres undefined) | -0.1 | 1.6 | -2 | -3 | 0.68 | · | · | · | 3.6 | i
O=C(O)c1ccccc1C(=O)NCc1c(Cl)cccc1Sc1ccc(Cl)cc1 | 0.6 | -0.1 | 1 | -3 | 0.67 | -29* | -20* | -2.0* | 1.8 | i
CC(C)c1nnc(NC(=O)CCC(=O)NC2CCCc3ccccc32)s1 (centres undefined) | -0.5 | · | -11 | · | 0.74 | · | · | · | 4.3 | ·
O=[N+]([O-])c1c(N2CCN(CCO)CC2)nc2ccccn12 | -0.2 | -1.2 | -6 | -4 | 0.64 | 11 | 10 | -1.1 | 12 | i
CC(C)(C)C(Cn1ccnc1)NC(=O)c1ccc2nc(C3CC3)oc2c1 (centres undefined) | 0.7 | 2.9 | 46 | -3 | 0.7 | -1 | 2 | -2.1 | 2.6 | i
Cc1cc(NC(=O)CSc2nccn2-c2cccc(F)c2)no1 | -0.9 | -1.8 | · | -18 | 0.7 | -4 | 3 | 0.7 | 0.6 | i
COc1ccc(C(O)c2nccn2Cc2ccccc2)cc1OC (centres undefined) | 0.0 | · | -19 | 1 | 0.7 | · | · | · | -2.9 | ·
CCCCNC(=O)Cn1c(-c2ccc(OC)cc2)noc1=O | -0.2 | · | 0 | -6 | 0.69 | · | · | · | 1.6 | ·
CCC(=O)Nc1c2c(nn1-c1cccc(Cl)c1)CS(=O)(=O)C2 | -0.8 | 0.3 | -3 | 1 | 0.72 | 0 | 4 | -2.8 | -2.6 | i
CC(=O)C1=C(NC(=O)c2ccc(C(F)(F)F)cc2)C[C@@H]2[C@H]1C2(C)C | 0.1 | 13 | 7 | -1 | 0.68 | 3 | 4 | 1.2 | 3.5 | i
CCOC(=O)C(=O)c1c(C)cc2ccccn12 | · | -1.7 | · | · | 0.7 | 16 | 2 | 0.3 | 5.2 | i
O=C(NNC(=O)C1CC=CCC1C(=O)O)c1ccc(Cl)cc1 (centres undefined) | 0.5 | -0.6 | 8 | 0 | 0.68 | 10 | 7 | -2.5 | -2.4 | i
O=C(COc1ccc([N+](=O)[O-])cc1)NCc1ccccc1 | -1.0 | · | -6 | 1 | 0.67 | · | · | · | 4.6 | ·
Cn1nc(C(F)(F)F)cc1Oc1ncc(C(F)(F)F)cc1Cl | -0.3 | -1.4 | -35 | -7 | 0.7 | 12 | 10 | 1.5 | 3.0 | i
CCc1ccc(C(=O)COC(=O)c2nn(C)c(=O)c3ccccc23)cc1 | 1.1 | -1.8 | -10 | -5 | 0.7 | 6 | 4 | 0.1 | 1.8 | i
CCOC(=O)c1c(Cl)c(C)nn1-c1nc(OC)cc(OC)n1 | 0.0 | -3.4 | 5 | 5 | 0.71 | 1 | 8 | -2.5 | 4.0 | i
Cc1nc2ccc(C(=O)N3CCN(Cc4ccccc4)CC3)cc2[nH]1 | -0.3 | -0.6 | 6 | -8 | 0.71 | 9 | 12 | -1.5 | 4.3 | i
O=C(NCCC1=CCCCC1)c1cc2c(s1)CS(=O)(=O)C2 | 0.1 | · | 24 | -2 | 0.66 | · | · | · | 3.2 | ·
CC(C)c1ccc(N2C(=O)CC(Sc3ncccn3)C2=O)cc1 (centres undefined) | 0.3 | 0.1 | 0 | -5 | 0.7 | 11 | 9 | 3.6 | 4.1 | i
O=C(COc1ccccc1Br)N1CCN(C(=O)c2cccs2)CC1 | 0.2 | -2.5 | · | -3 | 0.61 | -1 | -5 | -1.2 | 0.7 | i
CCN1CCN(C(=O)c2cc(S(=O)(=O)N3CC(C)CC(C)C3)ccc2Cl)CC1 (centres undefined) | · | -1.2 | · | · | 0.69 | 9 | 8 | 0.8 | 3.7 | i
CC(NC(=O)COc1ccc([N+](=O)[O-])cc1)c1ccccc1 (centres undefined) | -0.6 | -8.7 | -5 | -3 | 0.72 | -1 | 4 | -1.5 | 4.3 | i
Cc1cc(NC(=O)c2n[nH]c(=O)c3ccccc23)ccc1Br | -1.0 | -3.7 | -8 | 4 | 0.7 | 20 | 8 | -0.6 | -1.4 | i
COc1cc(COCC(O)CN2C(C)CCCC2C)cc(OC)c1OC (centres undefined) | -0.5 | -0.8 | -13 | · | 0.69 | 1 | 9 | -0.3 | 6.3 | i
c1ccc(OCc2nn3c(-c4ccco4)nnc3s2)cc1 | 0.2 | · | -4 | · | 0.69 | · | · | · | 2.8 | ·
O=C(Nc1cc(C(F)(F)F)ccc1N1CCOCC1)c1n[nH]c(=O)c2ccccc12 | 0.1 | · | 10 | 5 | 0.75 | · | · | · | 2.1 | ·
CC(=O)c1ccc(C(=O)N2CCc3c([nH]c4ccccc34)C2c2ccccn2)s1 (centres undefined) | -0.1 | 14 | -1 | -3 | 0.69 | -17 | -12 | -1.6 | 5.3 | i
CCCCNCCOCCSc1ccc(Cl)cc1 | -1.0 | · | 38 | -2 | 0.63 | · | · | · | 0.0 | ·
Cn1c(=O)cc(SCC(=O)NCCC2=CCCCC2)c2ccc(Cl)cc21 | ? | · | 10 | -2 | 0.71 | · | · | · | 0.2 | ·
CC1CCN(C(=O)Cn2cc([N+](=O)[O-])ccc2=O)c2ccccc2S1 (centres undefined) | 0.6 | -1.6 | · | 0 | 0.67 | -19 | -28 | 9.4 | 6.2 | i
Cc1ccccc1Cn1cnc2c([N+](=O)[O-])c(C)c(C)cc21 | 0.5 | · | 12 | -4 | 0.68 | · | · | · | 3.5 | ·
Cc1cc(NC(=O)CN(C)CC(=O)Nc2ccc(Cl)c(C(F)(F)F)c2)no1 | -0.3 | -0.4 | · | -1 | 0.67 | 1 | -3 | 2.2 | 3.0 | i
